Bioassay records deposited in PubChem BioAssay by several laboratories.
RanGTP-Imp inh – inhibitors of RanGTP-importin-beta interaction, primary screen, biochemical, FRET, CFP-Ran, YFP-importin-beta, homogeneous; Ran GTPase (GTP-bound) - importin-beta complex; cell-free CFP-Ran/YFP-importin-beta FRET ratio; AID 2216, 2009; inhibition, % (test concentration not listed); 1.1% of 300,000 active;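 active means most replicates above 15%; inconclusive means exactly half above 15%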;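 further: 0% = DMSO wells and 100% = Ran loaded with GDP instead of GTP; wells of about 40 µL received 100 nL stock; the first replicate is given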
Calb FLC – C. albicans growth inhibition with fluconazole, primary screen, CaCi-2 strain, Alamar Blue fluorescence; C. albicans CaCi-2 (fluconazole-resistant clinical isolate) + fluconazole, 48 h; growth inhibition, % (concentration not given with the values); 0.57% of 300,000 active; AID 1979, 2009;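 active means most replicates above 75%; inconclusive means exactly half above 75%; inactive means most below 75%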;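 further: all wells also contain fluconazole at 8 µg/ml as a sub-toxic cotreatment; 0% = median of DMSO wells and 100% = median of geldanamycin control wells; wells of about 8 µL received 7.5 nL stock; the first replicate is given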
Bfl-1 A1 inh – caspase 3/7 activation in MEF A1-2A-BIM cells, primary screen, A1 inhibitor project, cell-based, luminescence, HTS | 0.066% of 330,000 active | AID 2462, 2010 | Caspase-Glo 3/7 luminescence, 3 h; percent of clofoctol response, vehicle zero | caspase activation, % (concentration not given with the values);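 active means over half of replicate activation scores above 10%, or exactly half above 10 with the replicate mean above 10; inconclusive means replicate mean below 10 yet half the replicates above 10; inactive means over half of replicates below 10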;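 further: wells of about 30 µL received 50 nL stock; many hits fall short of the cut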
T cruzi inh – inhibitors of intracellular T. cruzi growth, primary screen, luminescence, NIH3T3 host cells. 1.4% of 300,000 active. T. cruzi beta-gal in NIH3T3, 90 h. inhibition, % (test concentration not listed). AID 1885, 2009;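 active means mean inhibition across valid replicates above about 55%, limit read from the data; inconclusive means mean below that limit but half or more replicates reach it; inactive means mean below it, under half of replicates reach it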;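 further: signal also drops with host cell toxicity which is not excluded here; 0% = plate median of DMSO wells and 100% = zero luminescence signal; higher percent means less beta-gal luminescence so fewer parasites; stock transfer was 50 nL into about 50 µL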
rRNA inh HTS – reduced GFP signal of wild-type E. coli, primary screen, bacterial rRNA inhibitor project, GFP/RFP fluorescence, OD600, single point | E. coli WT GFP vs humanized-ribosome RFP mutants, 24 h; stronger effect = lower value; DMSO median 0, no signal -100 | GFP signal change (wild-type ribosome), % (no concentration beside the values) | 1.6% of 350,000 active;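 active means significant combined selectivity score with lowered wild-type GFP, culture density cut under 30%, mutant RFP and density less affected; inactive means any of these conditions unmet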; further: one replicate is shown; some compounds called inactive have numbers as strong as hits
MLL AF4-AF9 inh – inhibitors of AF4 peptide binding to AF9, primary screen, biochemical, AlphaScreen, biotin-AF4 peptide, FLAG-AF9, single point | Protein AF-9 (Homo sapiens), P42568 | 0.47% of 350,000 active | AID 651704, 2012 | inhibition, % at 10 µM;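 active means every replicate reaching a set inhibition limit, whatever the replicate mean, cut at about 25% in these data; inconclusive means mean inhibition reaches that limit but some replicates miss it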;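 further: 0% = plate neutral control median and 100% = total signal loss; the record names both 10 and 1 µM as test concentration; the first replicate is given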
Target sequence (P42568 whole entry, looked up): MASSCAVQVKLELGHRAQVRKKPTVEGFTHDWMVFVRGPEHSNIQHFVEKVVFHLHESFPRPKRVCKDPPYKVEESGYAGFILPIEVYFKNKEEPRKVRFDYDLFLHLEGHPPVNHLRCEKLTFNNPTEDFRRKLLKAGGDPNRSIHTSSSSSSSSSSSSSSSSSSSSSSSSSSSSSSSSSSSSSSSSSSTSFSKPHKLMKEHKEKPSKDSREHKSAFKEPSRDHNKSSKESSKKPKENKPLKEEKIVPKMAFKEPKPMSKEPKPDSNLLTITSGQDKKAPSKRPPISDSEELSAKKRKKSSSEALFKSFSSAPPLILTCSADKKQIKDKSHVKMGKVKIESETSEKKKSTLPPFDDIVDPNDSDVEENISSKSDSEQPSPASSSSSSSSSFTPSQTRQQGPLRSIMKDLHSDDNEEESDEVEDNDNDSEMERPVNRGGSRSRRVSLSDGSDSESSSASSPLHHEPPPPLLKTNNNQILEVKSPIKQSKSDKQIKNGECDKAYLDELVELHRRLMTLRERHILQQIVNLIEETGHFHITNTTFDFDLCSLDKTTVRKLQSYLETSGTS
Beta apoptosis – inhibitors of cytokine-induced beta cell apoptosis, primary screen, luminescence | INS-1E cytokine-induced death, ATP luminescence, 48 h; percent of positive-control rescue, neutral wells zero | protection from apoptosis, % (concentration not given with the values) | 0.8% of 300,000 active;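 active means all replicates at 75% or more, or half of them and the mean; inconclusive means half reach 75% but not the mean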;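 further: 0% = cytokine-treated negative control wells and 100% = positive control rescue; higher means more ATP so stronger rescue from cytokine killing; wells of about 40 µL received 100 nL stock; the first replicate is given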
Vif A3G – inhibitors of Vif binding to APOBEC3G peptide, primary screen, biochemical, TR-FRET, GST-Vif 1-94, biotin-A3G peptide, dose response retest (AID 1117319); 0.57% of 260,000 active; inhibition, %, or IC50 in µM where a hit was titrated; TR-FRET GST-Vif / biotin-A3G peptide binding; higher % means a stronger effect; test concentration not given here; strong numbers were not always called active;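 active means above the screen mean plus three standard deviations and confirmed in dose response; inconclusive means results disagree or hit not tested in dose response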;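 further: Vif residues 1-94 fused to GST binding biotinylated APOBEC3G peptide 110-148; 0% = full assay without inhibitor and 100% = GST in place of GST-Vif; retest series ran down from 100 µM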
rRNA inh HTS OD600 – recorded beside rRNA inh HTS, whose call it bears; OD600 change, %; measured here: OD600 growth;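 optical density of the mix in the first replicate; 0 = DMSO median and -100 = no signal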
rRNA inh HTS RFP – further read-out of rRNA inh HTS, marked with its call; RFP signal change, %; measured here: RFP humanized mutant strains;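 first replicate; 0 = DMSO median and -100 = no signal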
Starred values were filed as active, the others as inactive; ? = inconclusive; . = no result given.

Start of the data: the first 2 compounds, ahead of the listing:
SMILES	RanGTP-Imp inh	Calb FLC	Bfl-1 A1 inh	T cruzi inh	rRNA inh HTS	rRNA inh HTS OD600	rRNA inh HTS RFP	MLL AF4-AF9 inh	Beta apoptosis	Vif A3G
O=C(NCCCCCCNC(=O)c1ccccc1O)c1ccccc1O	6.6	6.2	0.1	1.2	16.6	1.6	5.0	-1.3	3.0	0.6%
COc1cc(/C=C2\SC(=Nc3ccc(O)cc3)NC2=O)cc(OC)c1OC	4.8	0.5	-0.5	33.6	1.6	4.9	-4.1	-3.4	11.3	.

This part in full, repeating the preview:
SMILES	RanGTP-Imp inh	Calb FLC	Bfl-1 A1 inh	T cruzi inh	rRNA inh HTS	rRNA inh HTS OD600	rRNA inh HTS RFP	MLL AF4-AF9 inh	Beta apoptosis	Vif A3G
O=C(NCCCCCCNC(=O)c1ccccc1O)c1ccccc1O	6.6	6.2	0.1	1.2	16.6	1.6	5.0	-1.3	3.0	0.6%
COc1cc(/C=C2\SC(=Nc3ccc(O)cc3)NC2=O)cc(OC)c1OC	4.8	0.5	-0.5	33.6	1.6	4.9	-4.1	-3.4	11.3	.
Clc1ccc(-c2nc3ccccn3c2CN2CCOCC2)cc1	4.8	-13.1	-1.2	9.0	.	.	.	.	2.1	-2.2%
CSc1ccc(-c2nc(CN(C)C3CCOC3)c(C)o2)cc1 (stereo unspecified)	1.2	-3.2	-0.3	-10.8	9.9	5.7	-4.9	2.5	-1.3	-6.7%
COc1ccc(N2CCN(C(=N)/C(C(C)=O)=C(\C)O)CC2)cc1	5.9	-0.1	-0.1	-10.6	.	.	.	.	-4.4	30.9%
CC1Sc2ccc(C(=O)N3CCCC(C(F)(F)F)C3)cc2NC1=O (stereo unspecified)	0.1	-0.6	-0.4	-8.2	-1.2	3.9	-0.6	-3.5	6.2	3.9%
Cn1cccc1/C=N/N1CCN(c2ccccc2)CC1	-7.4	-39.9	-0.6	-0.3	9.1	16.4	0.5	15.5	0.1	11.3%
CSC(=NNC(=O)c1ccc(O)cc1)SC	-0.9	-4.3	-2.4	-21.5	.	.	.	.	4.4	10.2%
CCN1C(=O)C(C)S/C1=N\S(=O)(=O)c1ccc(Cl)s1 (stereo unspecified)	0.8	-8.2	-0.1	14.6	.	.	.	.	5.6	6.9%
C[C@H]1[C@H]2c3nc4ccccc4n3C[C@H]1ON2C1CCCCC1	-2.1	1.6	0.7	-18.9	6.9	-4.4	7.1	6.7	-4.3	.
CC(C)NC(=O)C1(c2ccccc2)CCOCC1	-2.8	2.3	1.0	-14.1	.	.	.	1.6	-2.4	-3.4%
Cc1cccnc1NC(=S)Nc1ccc(Br)cc1Cl	0.0	-9.4	2.3	-5.4	8.1	1.4	2.8	2.7	-4.9	-0.1%
Cc1cccc(C(=O)O/N=C(\N)c2cccc([N+](=O)[O-])c2)c1	-3.0	?	-3.5	0.8	15.2	6.1	-7.5	1.7	-6.9	4.5%
COC(=O)c1ccccc1NC(=O)CN(c1ccc(OC)cc1)S(C)(=O)=O	-0.7	?	-1.1	-3.9	.	.	.	.	-2.0	-1.7%
O=C(CCN1CCCCC1)c1ccccc1	1.0	-5.3	-0.7	-25.5	17.0	2.4	-0.8	-1.5	-6.6	2.0%
COc1ccc(S(=O)(=O)N2CCC(C(N)=O)CC2)cc1	7.0	-2.6	-0.6	-8.3	6.2	2.9	2.5	-0.1	.	.
O=C(O)/C=C/c1ccc(S(=O)(=O)NCc2ccco2)cc1	3.2	15.0	0.0	-16.6	7.8	5.2	2.7	-1.7	-1.0	.
Cc1ccc(C)c(N2CCN(S(=O)(=O)c3ccc4c(c3)oc(=O)n4C)CC2)c1	1.9	19.5	-0.2	34.0	.	.	.	.	-5.9	?
Clc1ccc(-c2cc(C3CCNCC3)[nH]n2)cc1	2.0	-4.5	-1.4	49.7	-53.2	-74.8	-18.0	2.2	9.9	4.2%
COc1ccc(-n2c(SCC(=O)Nc3ccc(C(N)=O)cc3)nc3c([nH]c4ccccc43)c2=O)cc1OC	?	0.4	0.6	-10.9	-5.0	-10.9	0.1	4.5	-13.1	-0.1%
COc1ccccc1NC(=O)c1cccc2c(Br)cccc12	?	-4.1	-0.6	-22.7	-17.8	-6.8	-0.2	0.6	.	.
C/C=C/c1ccc(OCCOc2cc(C=O)ccc2OC)c(OC)c1	-0.8	5.8	-0.8	-21.9	.	.	.	.	-9.7	16.8%
CC(=O)c1ccc(S(=O)(=O)N2CCN(C(=O)/C=C/c3ccc4ccccc4n3)CC2)cc1	1.5	10.9	-0.2	20.6	-3.1	5.7	1.3	-11.2	1.9	.
O=C(c1cc(-c2ccncc2)nc2ccc(Br)cc12)N1CCN(Cc2ccc3c(c2)OCO3)CC1	?	2.0	0.0	79.3*	8.3	9.3	0.8	-1.0	-4.2	-13.9%
Cc1nc2nc(SCC(=O)C(C)(C)C)[nH]c2cc1Br	-1.8	4.0	-1.5	2.4	.	.	.	.	-4.9	6.4%

Limited to MLL AF4-AF9 inh and T cruzi inh, for some of the entries so far:
Molecule | MLL AF4-AF9 inh | T cruzi inh
CC1Sc2ccc(C(=O)N3CCCC(C(F)(F)F)C3)cc2NC1=O (stereo unspecified) | -3.5 | -8.2
Cn1cccc1/C=N/N1CCN(c2ccccc2)CC1 | 15.5 | -0.3
CSC(=NNC(=O)c1ccc(O)cc1)SC | . | -21.5
CCN1C(=O)C(C)S/C1=N\S(=O)(=O)c1ccc(Cl)s1 (stereo unspecified) | . | 14.6
C[C@H]1[C@H]2c3nc4ccccc4n3C[C@H]1ON2C1CCCCC1 | 6.7 | -18.9

Continued.
SMILES	RanGTP-Imp inh	Calb FLC	Bfl-1 A1 inh	T cruzi inh	rRNA inh HTS	rRNA inh HTS OD600	rRNA inh HTS RFP	MLL AF4-AF9 inh	Beta apoptosis	Vif A3G
c1ccc(N2CCN(Cc3nnnn3C3CCCCC3)CC2)cc1	-1.9	39.6	0.5	6.6	-20.6	-18.0	-1.5	.	-3.1	32.8%
Cc1ccc(NC(=O)C(C)N=C2NS(=O)(=O)c3ccccc32)cc1F (stereo unspecified)	8.0	15.1	1.9	1.0	-14.5	-6.4	1.0	-0.1	-1.0	8.1%
COCCNC(=O)c1ccc(S(=O)(=O)c2ccc(Cl)cc2)c(NC(C)=O)c1	8.4	-15.3	-0.5	-4.4	-0.4	1.1	2.5	0.3	.	-7.3%
COc1ccc(OCc2cc(C(=O)NCCN3CCCC(O)C3)no2)c(Cl)c1 (stereo unspecified)	0.4	-9.6	-0.3	16.2	0.9	8.2	0.7	-0.1	-1.9	17.3%
Cc1ccccc1C1NC(=S)NC2=C1C(=O)CC(C)(C)C2 (stereo unspecified)	0.5	-6.8	0.4	-2.5	0.7	-0.7	1.1	0.0	4.7	-2.0%
CC(C)CNC(=O)c1cccc(NC(=O)C(C)C)c1	5.5	3.4	-0.8	21.6	8.4	11.8	-0.9	-1.7	-3.3	?
Cc1cc(F)ccc1S(=O)(=O)N(CC(=O)N1CCOCC1)CC(=O)N1CCOCC1	.	.	0.3	.	18.0	5.1	2.7	-2.4	-0.5	-7.9%
Cc1ccc(NC(=O)NNC(=O)Cn2nc(-c3ccccc3)c(-c3ccccc3)c(C#N)c2=O)cc1	-3.1	-2.3	0.1	-2.7	.	.	.	.	15.4	4.3%
CCc1nn(C(C)C(=O)NCc2ccc(Cl)cc2)c(=O)c2cc3occc3n12 (stereo unspecified)	-0.5	-12.9	-0.2	9.7	-4.6	-5.3	0.1	-4.8	-3.2	0.0%
COc1ccc(NC(=O)CSc2nc3ccsc3c(=O)n2CCCCCC(=O)O)cc1	0.2	-0.6	-0.9	-9.6	19.2	10.9	-3.8	0.6	-5.0	13.7%
CSc1nc2ccc(NC(=O)c3c(-c4ccccc4)noc3C)cc2s1	2.4	-2.5	0.9	21.5	-21.4*	-7.2*	6.5*	?	-3.4	-9.4%
CCc1cc(C(=O)NNC(=S)NCc2ccccc2)cs1	-3.4	-14.1	-0.1	9.9	.	.	.	.	-1.0	5.2%
COc1ccc2c(c1OC)C(=O)OC2CC(=O)c1ccc(N(C)C)cc1 (stereo unspecified)	-1.8	3.2	-0.5	-0.4	.	.	.	.	-7.5	14.3%
Clc1ccc(-c2nn3c(C4COc5ccccc5O4)nnc3s2)cc1 (stereo unspecified)	?	18.7	0.5	-5.1	.	.	.	.	-5.7	-10.8%
O=C(COC(=O)[C@H](Cc1ccccc1)NS(=O)(=O)c1ccccc1F)NC1CCCCC1	-1.6	25.2	-0.6	-6.8	.	.	.	.	-4.5	5.6%
CCOc1ccc(CCN2C(=O)C3C4CCC(O4)C3C2=O)cc1OCC (stereo unspecified)	.	.	-1.9	.	10.6	4.9	0.0	0.5	-3.8	-5.0%
Clc1cc(CSc2ccccc2)nc(-c2ccccc2)n1	-0.4	0.0	0.3	6.3	.	.	.	.	-6.0	-1.2%
CCOc1ccc(OCCC(=O)OCC(=O)N2CCN(S(=O)(=O)c3ccc(C)cc3)CC2)cc1	-1.7	0.0	1.5	12.4	6.3	2.2	1.7	-9.2	-17.0	.
COc1ccc(CNC/C=C/c2ccccc2)cc1	0.0	1.9	-0.4	-22.4	10.6	7.6	1.1	0.6	.	1.4%

Only part of the results is shown (hit frequency here may not be typical).
